B2AR ag: beta2AR agonists driving receptor internalization, primary screen, cell-based, FAP fluorogen, flow cytometry; Beta-2 adrenergic receptor (Homo sapiens), P07550; Am2.2-beta2AR cells; reference of the scale not given here; response, % (no concentration beside the values); 340,000 tested, 0.43% active;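 active = response above a set limit, near 3 SD of response in nonfluorescent compounds, cut at about 42% in these data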;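 also: stock transfer was 100 nL into about 11 µL; a reference agonist was the positive control; negative values mostly stem from fluorescent compounds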
Target sequence (P07550 whole entry, looked up): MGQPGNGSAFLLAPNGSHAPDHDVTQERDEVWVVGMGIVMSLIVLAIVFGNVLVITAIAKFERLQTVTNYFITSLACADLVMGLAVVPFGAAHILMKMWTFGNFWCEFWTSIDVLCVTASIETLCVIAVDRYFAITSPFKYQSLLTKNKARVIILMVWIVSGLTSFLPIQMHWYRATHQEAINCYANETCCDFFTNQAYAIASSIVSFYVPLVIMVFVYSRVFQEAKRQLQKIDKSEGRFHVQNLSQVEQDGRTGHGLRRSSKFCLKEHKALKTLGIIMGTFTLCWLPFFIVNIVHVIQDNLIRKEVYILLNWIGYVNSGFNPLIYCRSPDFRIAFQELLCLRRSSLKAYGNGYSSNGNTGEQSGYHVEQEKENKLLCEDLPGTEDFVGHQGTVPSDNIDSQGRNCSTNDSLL
rRNA inh HTS: reduced GFP signal of wild-type E. coli, primary screen, bacterial rRNA inhibitor project, GFP/RFP fluorescence, OD600, single point; GFP signal change (wild-type ribosome), % (no concentration beside the values); E. coli WT GFP vs humanized-ribosome RFP mutants, 24 h; hits give low values; DMSO median 0, no signal -100; 350,000 tested, 1.6% active; AID 720706, 2013;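 active = significant combined selectivity score with lowered wild-type GFP, culture density cut under 30%, mutant RFP and density less affected; inactive = any of these conditions unmet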; also: one replicate is shown; some compounds called inactive have numbers as strong as hits
UCH37 DUB inh: inhibitors of human UCH37 deubiquitinase, primary screen, biochemical, Ub-AMC cleavage, fluorescence; purified proteasome/UCH37; inhibition, % (no concentration beside the values); 330,000 tested, 0.33% active; AID 588478, 2011;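 active = mean of two replicates above 20%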;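 also: 0% = compound-free wells with enzyme and 100% = wells lacking proteasome; stock transfer was 100 nL into about 20 µL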
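System: Proteasome-associated human UCH37 deubiquitinase; Input: 0.15 nM proteasome in added enzyme buffer; Also added: Ub-AMC substrate from 1 µM stock; Incubation: 30 min compound-proteasome preincubation then 25 min substrate reaction, room temperature; Detection: fluorescence, ex 355 nm, em 460 nm; Read-out: % inhibition of Ub-AMC cleavage fluorescence; Benchmarks: no-proteasome and no-compound wells.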
Ecoli growth: E. coli growth inhibition, primary screen, OD600; Escherichia coli growth, 23 h; hits give low values; OD600 absorbance (no concentration beside the values); 330,000 tested, 0.21% active; AID 1053175, 2014;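 active = OD600 absorbance below the run mean of sample wells minus 3.6 SD, in any replicate, cut at about 0.56 in these data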;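 also: stock transfer was 300 nL into about 60 µL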
FGF22 binding: binders of human FGF22 protein, primary screen, FGF22 synaptogenesis inhibitor project, biophysical, thermal shift, single point; 340,000 tested, 1.5% active; recombinant FGF22 thermal shift, SYPRO orange fluorescence; percent of sucrose octasulfate shift, DMSO zero; Fibroblast growth factor 22 (Homo sapiens), Q9HCT0; calls only at 9.99 µM;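 active = melting point raised past a set limit in the mean and every replicate; inconclusive = no clear call; three in four hits are not shown here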
Target sequence (Q9HCT0 whole entry, looked up): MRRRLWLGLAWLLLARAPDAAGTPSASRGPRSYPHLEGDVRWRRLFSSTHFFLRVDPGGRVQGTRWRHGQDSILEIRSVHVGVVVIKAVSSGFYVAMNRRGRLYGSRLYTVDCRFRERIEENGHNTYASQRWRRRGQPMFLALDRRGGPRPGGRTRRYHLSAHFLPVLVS
HNF4A DNA FP: change in binding of human HNF4A to DNA, primary screen, biochemical, fluorescence polarization, FITC-DNA; Hepatocyte nuclear factor 4-alpha (Homo sapiens), P41235; 1 h; activity change, % at 10 µM; 360,000 tested, 0.3% active; in the data active = activity change above about 30%, passing the limit was not always enough;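 also: controls were the assay level and a saturating level of protein; the project sought stronger binding though the title names inhibitors; some compounds called inactive have numbers as strong as hits; positive values seem to mean higher polarization but the record does not say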
ALR H2O2 inh: inhibitors of human ALR sulfhydryl oxidase, primary screen, biochemical, H2O2 detection, HRP-luminol luminescence, single point; FAD-linked sulfhydryl oxidase ALR (Homo sapiens), P55789; purified ALR, DTT oxidation; inhibition, % (test concentration not listed); 290,000 tested, 3.8% active;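 active = mean and each replicate at 75% or more; inconclusive = only one of the two met; inactive = neither met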;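 also: stock transfer was 7.5 nL into about 7.5 µL; 0% = neutral wells and 100% = wells with inactivated enzyme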
Target sequence (P55789 whole entry, looked up): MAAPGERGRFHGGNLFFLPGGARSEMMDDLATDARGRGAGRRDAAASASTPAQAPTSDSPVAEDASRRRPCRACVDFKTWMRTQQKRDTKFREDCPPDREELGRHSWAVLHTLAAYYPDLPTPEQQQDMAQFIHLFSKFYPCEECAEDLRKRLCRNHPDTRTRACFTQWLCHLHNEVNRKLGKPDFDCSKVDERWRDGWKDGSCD
rRNA inh HTS OD600: second read-out of rRNA inh HTS, no call of its own (marks repeat the call); OD600 change, %; measured here: OD600 growth;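 optical density of the mix in the first replicate; 0 = DMSO median and -100 = no signal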
rRNA inh HTS RFP: further read-out of rRNA inh HTS, marked with its call; RFP signal change, %; measured here: RFP humanized mutant strains;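 first replicate; 0 = DMSO median and -100 = no signal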
* marks the source's active call; other numbers are inactive results; i = inactive; ? = inconclusive; / = no result given. Not all compounds are listed; rates above refer to the full screens.

Under each structure – B2AR ag, Ecoli growth, HNF4A DNA FP, UCH37 DUB inh, FGF22 binding, rRNA inh HTS RFP, ALR H2O2 inh, rRNA inh HTS OD600, rRNA inh HTS
#1 COC(=O)[C@]12CCCCC=C1N(Cc1ccco1)C(=O)[C@H](CC(=O)N1CCCCC1)C2
→ /, /, 4.9, /, i, 3.9, /, 12, 16
#2 CCN1CCN(c2ccccc2NC(=O)C(C)Oc2ccc(C(C)=O)cc2)CC1 (configuration not stated)
→ -7, 0.68, 1.1, -0.1, i, /, 0, /, /
#3 Cc1cc(NC(=O)COc2cccc([N+](=O)[O-])c2)no1
→ 2, 0.68, -3.2, 0.4, i, 1.3, -24, -15, -15
#4 COc1ccc2c(c1)C1(C)CC(C)(C)N2C(=O)N1c1ccccc1 (configuration not stated)
→ 4, 0.73, -3.1, -25, /, /, -7, /, /
#5 NCCCCCc1nnc(SCc2ccccc2Cl)o1
→ 0, 0.66, -0.5, -1.2, /, /, 13, /, /
#6 CCN(CC(=O)Nc1ccc(OC)cc1)C(=O)c1ccc2ccccc2c1
→ -10, 0.66, -2.8, -0.2, i, 5.2, 5, -9, -2
#7 O=C(Nc1ccccc1C(=O)O)c1cc(S(=O)(=O)N2CCCCCC2)ccc1Cl
→ 22, 0.69, 0.9, 1.8, i, -6.3*, /, -33*, -44*
#8 CC(C)(C)CC(=O)Nc1ccc(S(=O)(=O)N2CCCC2)cc1
→ 0, 0.66, -0.4, 2.0, i, 1.5, /, 10, 7
#9 O=c1nc(/C=C/c2cc([N+](=O)[O-])ccc2Cl)cc(C(F)(F)F)[nH]1
→ 10, 0.65, -2.6, 6.0, /, /, 14, /, /
#10 CN1CCc2c(n(CC(O)CN3CCN(CCO)CC3)c3ccccc23)C1=O (configuration not stated)
→ -6, 0.64, -2.8, -39, i, 5.4, -8, 21, 26
#11 Cc1ccc2c(C)c(C(=O)N(Cc3ccc(N(C)C)cc3)C3CCS(=O)(=O)C3)oc2c1 (configuration not stated)
→ -14, 0.72, 0.9, 3.3, i, 2.2, 1, -5, 2
#12 COc1ccc(OC)c(Nc2nc(-c3ccccc3O)nc3ccccc23)c1
→ 2, 0.68, -0.6, 5.6, i, -2.6, -7, 11, 22
#13 COC(=O)c1ccc(CNC(=O)c2ccc3oc(C(C)C)nc3c2)cc1
→ -10, 0.71, 4.0, 5.6, i, 10, 4, 4, 3
#14 O=c1c2ccccc2c2ccccc2c(=O)n1-c1ccccc1
→ 2, 0.73, 2.6, 4.0, i, -0.2, 27, 5, 5
#15 Cc1cc(=O)oc2cc(OCC(=O)OCC(=O)Nc3ccc4ccccc4c3)ccc12
→ -4, 0.67, -1.4, -34, /, /, -11, /, /
#16 O=C(O)c1cc(S(=O)(=O)Nc2ccc(N3CCCCC3)cc2)ccc1Cl
→ -1, 0.66, -3.7, 4.2, i, 4.9, 98*, 4, -2
#17 CC1CCCCC1NC(=O)Cn1nnc(-c2ccc(Cl)cc2)n1 (configuration not stated)
→ -8, 0.66, -4.4, 1.2, i, 4.5, -5, 6, 14
#18 O=[N+]([O-])c1ccc2c(c1)ncn2-c1ccccc1
→ -10, 0.64, 1.0, 5.4, /, /, /, /, /
#19 COc1ccccc1NS(=O)(=O)c1cc(C(=O)N2CCCC2)ccc1F
→ 3, 0.69, 1.2, -1.3, i, -1.4, /, 8, 7
#20 CC(OC(=O)c1cccs1)C(=O)NCc1ccco1 (configuration not stated)
→ -3, 0.72, -1.7, -0.4, /, /, 2, /, /

(next part)
Under each structure – B2AR ag, Ecoli growth, HNF4A DNA FP, UCH37 DUB inh, FGF22 binding, rRNA inh HTS RFP, ALR H2O2 inh, rRNA inh HTS OD600, rRNA inh HTS
#21 CCOC(=O)c1nn(-c2ccc3c(c2)CCN3C(C)=O)cc1O
→ -9, 0.74, 4.2, -494, i, 2.6, ?, -4, -4
#22 O=C(c1cc2ccccc2o1)N1CCC(N2CCC(C(=O)N3CCCC3)CC2)CC1
→ 0, 0.65, 3.7, 4.7, i, 3.0, 0, 11, 13
#23 COc1ccc2ccccc2c1/C=N\NC(=O)c1cccnc1
→ -2, /, -4.5, /, i, 0.2, 0, 2, 7
#24 CCOc1ccc(C(=O)NC(=S)Nc2cccnc2)cc1
→ -6, 0.7, 3.2, 2.8, i, -3.5, /, 10, 14
#25 COc1ccc(C(N)=O)c(OCC(=O)Nc2cc(C)on2)c1
→ 2, 0.72, -1.6, 0.2, i, -4.6, -1, 5, 6
#26 N#Cc1cccc(-c2nnc(SCc3ccccc3C#N)o2)c1
→ -11, 0.72, -2.2, 5.8, /, /, /, /, /
#27 COC(=O)[C@@H](NC(=O)NC1CCCc2ccccc21)C(C)C (some centres not stated)
→ 2, 0.68, 0.3, 1.5, /, /, -23, /, /
#28 O=C(O)c1cccc(N=NN2CCOCC2)c1
→ 0, 0.72, -0.4, 1.6, i, -1.6, -14, 12, 9
#29 Clc1ccc(CSc2nc3ccncc3[nH]2)cc1
→ -14, 0.65, -3.2, 5.2, i, -12, 90*, -26, -4
#30 N#Cc1ccccc1OCC(=O)N1CC(=O)Nc2ccccc21
→ /, /, 3.2, /, i, -1.0, /, 14, 13
#31 CCOC(=O)Cc1csc(NC(=O)C(C)c2ccc([N+](=O)[O-])cc2)n1 (configuration not stated)
→ 0, 0.67, 1.5, 0.9, i, -1.4, /, 4, 6
#32 CCCCn1c(N)c(N(CCOC)C(=O)CCS(=O)(=O)c2ccc(Cl)cc2)c(=O)[nH]c1=O
→ -2, 0.63, 1.6, -3.4, i, -1.8, -18, 8, -2
#33 COc1ccc(OC2CCN(S(=O)(=O)c3ccc(OC)cc3)CC2)cc1
→ 0, 0.71, -1.6, 4.7, i, -1.5, /, -20, -18
#34 CN(C)Cc1c(C(=O)N/N=C/c2ccco2)nnn1-c1nonc1N
→ -7, /, 0.7, /, i, 2.4, -4, -8, 1
#35 O=C(N/C(=N\O)c1ccccc1)Nc1ccc(Cl)cc1
→ -1, /, 2.5, /, /, /, 0, /, /
#36 COc1ccc(CC(=O)Oc2ccc(C)cc2Br)cc1S(=O)(=O)N1CCOCC1
→ 0, 0.66, 0.6, 3.0, i, 0.4, 5, -9, -1
#37 C=CCNc1nc(-c2sc(NC(=O)C(C)(C)C)nc2C)c(-n2cc(-c3ccccc3)nn2)s1
→ /, /, 1.0, /, i, 3.8, /, 12, 2
#38 O=C(CNC(=O)c1nc[nH]c1C(=O)N1CCc2ccccc2C1)OCc1ccccc1
→ 5, /, -4.1, -0.2, i, 0.9, /, -18, -12
#39 CCCCn1c(N)c(N(CCOC)C(=O)c2ccc3c(c2)C(=O)N(c2ccccc2C)C3=O)c(=O)[nH]c1=O
→ 0, 0.7, -2.1, 1.8, i, 2.4, 0, 6, 14
#40 COc1ccc(C(O)c2nc(-c3ccc(F)cc3OC)cs2)cc1 (configuration not stated)
→ /, /, 2.8, /, i, -4.8, /, -16, 4

Arranged by number of heavy atoms (smallest number first): 10 of the compounds above
Under each structure – B2AR ag, Ecoli growth, HNF4A DNA FP, UCH37 DUB inh, FGF22 binding, rRNA inh HTS RFP, ALR H2O2 inh, rRNA inh HTS OD600, rRNA inh HTS
#28 O=C(O)c1cccc(N=NN2CCOCC2)c1
→ 0, 0.72, -0.4, 1.6, i, -1.6, -14, 12, 9
#24 CCOc1ccc(C(=O)NC(=S)Nc2cccnc2)cc1
→ -6, 0.7, 3.2, 2.8, i, -3.5, /, 10, 14
#25 COc1ccc(C(N)=O)c(OCC(=O)Nc2cc(C)on2)c1
→ 2, 0.72, -1.6, 0.2, i, -4.6, -1, 5, 6
#21 CCOC(=O)c1nn(-c2ccc3c(c2)CCN3C(C)=O)cc1O
→ -9, 0.74, 4.2, -494, i, 2.6, ?, -4, -4
#40 COc1ccc(C(O)c2nc(-c3ccc(F)cc3OC)cs2)cc1 (configuration not stated)
→ /, /, 2.8, /, i, -4.8, /, -16, 4
#31 CCOC(=O)Cc1csc(NC(=O)C(C)c2ccc([N+](=O)[O-])cc2)n1 (configuration not stated)
→ 0, 0.67, 1.5, 0.9, i, -1.4, /, 4, 6
#36 COc1ccc(CC(=O)Oc2ccc(C)cc2Br)cc1S(=O)(=O)N1CCOCC1
→ 0, 0.66, 0.6, 3.0, i, 0.4, 5, -9, -1
#22 O=C(c1cc2ccccc2o1)N1CCC(N2CCC(C(=O)N3CCCC3)CC2)CC1
→ 0, 0.65, 3.7, 4.7, i, 3.0, 0, 11, 13
#38 O=C(CNC(=O)c1nc[nH]c1C(=O)N1CCc2ccccc2C1)OCc1ccccc1
→ 5, /, -4.1, -0.2, i, 0.9, /, -18, -12
#37 C=CCNc1nc(-c2sc(NC(=O)C(C)(C)C)nc2C)c(-n2cc(-c3ccccc3)nn2)s1
→ /, /, 1.0, /, i, 3.8, /, 12, 2

(more compounds)
Under each structure – B2AR ag, Ecoli growth, HNF4A DNA FP, UCH37 DUB inh, FGF22 binding, rRNA inh HTS RFP, ALR H2O2 inh, rRNA inh HTS OD600, rRNA inh HTS
#41 C=CCc1c(O)c(CC)cc2c(C)cc(=O)oc12
→ 2, 0.66, -1.6, i, i, -0.8, 15, -21, -14
#42 O=C(CN1CCCCCC1)Nc1ccc(S(=O)(=O)N2CCOCC2)cc1
→ -5, 0.67, 0.9, 5.0, i, 0.3, 2, -2, 7
#43 Cc1cc2cc(C)c3nnc(SCC(=O)N4CCN(C(=O)c5ccco5)CC4)n3c2cc1C
→ -4, 0.72, 3.9, 6.2, i, -6.5, /, -3, 0
#44 COc1ccccc1N1CCN(C(=O)c2cccc(S(=O)(=O)N3CCCCCC3)c2)CC1
→ 2, 0.66, 3.3, -0.7, i, /, /, /, /
#45 COc1ccccc1-c1csc(C(O)c2cccc(Cl)c2)n1 (configuration not stated)
→ /, /, 5.8, /, i, -15, /, -72, -40
#46 Cc1nnc(NC2=NCCC2)s1
→ -7, 0.68, 1.3, 1.5, /, /, 0, /, /
#47 O=C(CN1C(=O)S/C(=C\c2cccs2)C1=O)Nc1ccc(C(=O)O)c(O)c1
→ -2, 0.71, 1.5, 13, i, 5.9, 43, -20, 2
#48 O=[N+]([O-])c1ccc(Nc2c3ccccc3nc3ccccc23)cc1
→ -6, 0.66, -1.6, 6.2, i, -13, /, -64, -46
#49 C=CCOC(=O)c1ccccc1C(=O)OCC1CO1 (configuration not stated)
→ -6, 0.69, 2.4, 0.0, i, -0.3, /, 4, 5
#50 Cc1cnc(C(=O)N(c2ccc(N3CCOCC3)cc2)C2C(=O)Nc3ccccc3N=C2c2ccc(F)cc2)cn1 (configuration not stated)
→ /, /, -2.5, /, i, 3.2, /, -4, 6
#51 O=C(N/N=C/c1cccc(O)c1)c1ccc(COc2cccc3cccnc23)cc1
→ -5, /, 3.9, /, i, 5.9, /, 9, 3
#52 COc1cccc(/C=N/NC(=O)CCc2c(C)n[nH]c2C)c1O
→ 3, /, 6.6, /, i, -2.5, 49, -1, 9
#53 O=C(N/N=C/c1ccc(Cl)cc1Cl)c1cccc(F)c1
→ 4, /, -1.2, /, /, /, 26, /, /
#54 O=C(Nc1ccc(Cl)cn1)C1CCN(c2ncnc3c2nc2n3CCCCC2)CC1
→ -1, 0.63, -2.7, 1.5, i, -0.9, 10, -6, -2
